# Assay outcomes deposited in PubChem by National Center for Advancing Translational Sciences (NCATS).
# MARV entry inh – blocks Marburg virus binding to or entry into cells; Marburg virus pseudotyped entry inhibition, cell reporter; control for the full effect not named in the record; about a third of the inactives were read at about 46 µM; Potency, µM (highest dose often 37.8 µM), without a hit: top-dose activity change, negative = inhibition, most hits filed as inhibitors; 1.8% of 300,000 active; active = well fitted inhibition curve with a large enough effect; inconclusive = small, poorly fitted or top-dose-only effect, or effect the other way; inactive = flat fitted curve, though single readings scatter; tested in HEK293 cells; about a fifth of its hits are not listed in these tables; further: on the % scale 0 is the no-effect control and ±100 the full control effect; luciferase read-out
# Cruzain inh Det – blocks cruzain activity in presence of Triton detergent | P25779 | purified cruzain, Z-FR-AMC fluorescence, 0.01% Triton | Potency, µM, for inactives: max response, negative = inhibition, actives largely listed as inhibitors | 0.43% of 200,000 active;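 further: plate controls were neutral wells for no effect and buffer without enzyme for full effect; nearly all actives have a fitted effect of over 40% in size; top concentration of the series not given in the record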
# Target sequence (P25779 123-467 limits assumed): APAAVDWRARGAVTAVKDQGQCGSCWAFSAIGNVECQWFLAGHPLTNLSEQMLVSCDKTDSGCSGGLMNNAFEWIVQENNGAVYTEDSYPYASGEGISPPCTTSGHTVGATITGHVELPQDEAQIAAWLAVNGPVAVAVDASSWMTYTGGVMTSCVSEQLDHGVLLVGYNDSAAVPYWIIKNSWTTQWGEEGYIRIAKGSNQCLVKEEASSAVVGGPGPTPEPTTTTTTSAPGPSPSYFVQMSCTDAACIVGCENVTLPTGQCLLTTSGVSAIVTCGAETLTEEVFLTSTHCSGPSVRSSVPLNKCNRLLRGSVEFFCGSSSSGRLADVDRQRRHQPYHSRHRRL
#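 Read-out: AMC fluorescence (360 nm excitation, 450 nm emission), four reads over 2 min, first-to-third difference used. Conditions: cruzain 1.5 nM, Z-FR-AMC 2 uM, pH 5.5 acetate, 5 mM DTT, 0.01% Triton X-100.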
# Cruzain noTriton – blocks cruzain activity in detergent-free assay | 2.3% of 200,000 active | Potency, µM, for inactives: max response, negative = inhibition, actives largely listed as inhibitors | purified cruzain, Z-FR-AMC fluorescence, no detergent;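 further: plate controls were enzyme without inhibitor for no effect and buffer without enzyme for full effect; nearly all actives have a fitted effect of over 40% in size; top concentration of the series not given in the record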
#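 Purified cruzain at 1.5 nM, pre-incubated 15 min with compound at room temperature in 100 mM sodium acetate pH 5.5, 5 mM DTT, 0.00005% Triton X-100. Reaction started with 2 uM Z-FR-AMC; AMC fluorescence increase over 60 s gives rate.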
# LASV entry inh – inhibitors of Lassa virus binding or cell entry | 1.2% of 300,000 active | Lassa virus pseudotype entry inhibition, cell reporter; control for the full effect not named in the record | Potency, µM (doses to about 37.9 µM), inactives show at the highest dose activity change, negative = inhibition, hits mostly inhibitors; active means well fitted inhibition curve with a large enough effect; inconclusive means small, poorly fitted or top-dose-only effect, or effect the other way; inactive means flat fitted curve, though single readings scatter; tested in HEK293 cells; further: on the % scale 0 is the no-effect control and ±100 the full control effect; nearly all actives have a fitted effect of over 50% in size; luciferase read-out
# SARS PLP yeast – blocks SARS-CoV papain-like protease in a yeast assay | S. cerevisiae expressing SARS-CoV PLpro, growth rescue; control for the full effect not named in the record | Potency, µM (highest dose often 32.9 µM), for the others: at the highest dose activity, positive = growth rescue | 0.19% of 330,000 active; active means well fitted rising curve with a large enough effect; inconclusive means small, poorly fitted or top-dose-only effect; inactive means no such curve, though single readings can be large or run the other way; further: 0% is about no effect; nearly all actives have a fitted effect of over 55% in size; growth read by luminescence after 48 h
# 2A StopGo – FMDV 2A StopGo reporter, luciferase signal | Potency, µM (doses to about 57.9 µM), for inactives: at the top dose signal change, negative = less light | 1.2% of 410,000 active | human cells with a luciferase reporter of 2A StopGo recoding; control for the full effect not named in the record | AID 1159524; active = well fitted falling curve with a large enough effect; inconclusive = small, poorly fitted or top-dose-only effect; inactive = no such curve, though single readings can be large or run the other way; tested in HEK293T cells; further: on the % scale 0 is the no-effect control and ±100 the full control effect; nearly all actives have a fitted effect of over 45% in size; luciferase light after 4 h
# RE007 growth inh – less growth of the S. pombe RE007 Vpr strain | 0.21% of 360,000 active | Potency, µM (highest dose often 92.2 µM), for inactives: at the highest dose activity change, negative = less growth | AID 651644 | S. pombe RE007 Vpr strain, BacTiter-Glo ATP luminescence, 24 h; control for the full effect not named in the record; active = well fitted falling curve with a large enough effect; inconclusive = small, poorly fitted or top-dose-only effect; inactive = no such curve, though single readings can be large or run the other way;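 further: on the % scale 0 is the no-effect control and ±100 the full control effect; nearly all actives have a fitted effect of over 50% in size; the assay follows cell death caused by Vpr and the record does not say whether a fall means rescue or toxicity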
#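 Fission yeast strain RE007, carrying one chromosomally integrated HIV-1 vpr copy, was seeded at OD 0.01 in PMG+AL medium with 23 nL pinned compound. After 24 h at 30 °C and 99% humidity, viability was read by BacTiter-Glo luminescence.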
# NS1 inh – influenza NS1 inhibition | S. cerevisiae slowed by influenza A NS1, growth recovery by OD600 | Potency, µM (titrated, usually from 46.1 µM), for the others: at the highest dose activity, positive = more growth | 0.4% of 270,000 active | AID 2326; active means well fitted rising curve with a large enough effect; inconclusive means small, poorly fitted or top-dose-only effect; inactive means no such curve, though single readings can be large or run the other way; further: nearly all actives have a fitted effect of over 50% in size
#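 S. cerevisiae expressing influenza A NS1, grown in glucose, washed, then diluted 1:100 into pH 6.0 -URA galactose medium with 23 nl compound. Growth recovery read as OD600; NS1-free strain serves as control.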
# * marks the source's active call; other numbers are inactive results; ? = inconclusive; / = not tested or not shown; & = joins results of further samples; [ ] = dose if it differs, or a comment. Unless noted, the call rests on the fitted dose curve; in most records, active means well fitted curve in the direction sought with a large enough effect; inconclusive means small, poorly fitted or top-dose-only effect, or another doubt; inactive means no such curve, though single readings can be large; an effect the other way counts as inactive or inconclusive. Potency means the concentration at half of the fitted maximal effect.
SMILES,MARV entry inh,Cruzain inh Det,Cruzain noTriton,LASV entry inh,SARS PLP yeast,2A StopGo,RE007 growth inh,NS1 inh
O=C(CCC1CCCCC1)NCCS(=O)(=O)N1CCN(c2ccccc2F)CC1,3%,/,/,5%,/,-16%,4%,/
Cc1ccc(C)c(S(=O)(=O)NCCOc2nc(NC(C)C)nc(NC(C)C)n2)c1,?,-2.2%,-2%,-15%,1%,/,4%,7%
COc1ccc2nc(NC(=O)/C=C/c3ccc4c(c3)OCO4)sc2c1,/,-0.7%,-6%,/,-8%,/,/,4%
Cc1ccc(-n2c(=O)c3ccc(C(=O)NCc4ccccc4Cl)cc3n(CC(=O)Nc3ccc(C)cc3C)c2=O)cc1,?,-1.0%,0%,?,/,-1%,/,/
COc1ccc(N2CCN(S(=O)(=O)c3ccc(OC)c(C(=O)N4CCOCC4)c3)CC2)cc1,23%[46.1 µM],/,/,/,-12%,19%,?,-19%
Cc1nn2c(N3CCN(C(=O)c4ccco4)CC3)cc(C(C)(C)C)nc2c1-c1ccc(Cl)cc1,-1%,3.9%,?,/,-1%,/,/,7%
COc1cccc2cc(C(=O)N3CCN(c4ccccn4)CC3)c(=O)oc12,0%,2.3%,-13%,5%,6%,13%,9%,8%
COc1ccc(-c2nnc3n2CCCCC3)cc1OC,-3%[46.1 µM],/,/,7%,-2%,-3%,3%,-2%
Cc1ccc(SCC(=O)N(C)C2CCS(=O)(=O)C2)c(C)c1 (stereo not given),?,/,/,-3%,2%,4%,0%,/
Cc1cccc(C(=O)N2CCCC(N3CCN(c4cccc(Cl)c4)CC3)C2)n1 (stereo not given),3%,/,/,1%,-1%,-8%,-25%,-2%
Cc1ccc(S(=O)(=O)NCc2nc3ccccc3c(=O)n2N)cc1,0%,6.1%,-16%,7%,6%,-17%,-4%,0%
Cc1nc2scc(C)n2c(=O)c1S(=O)(=O)Nc1ccc(N2CCOCC2)c(Cl)c1,-2%&-2%[46.1 µM],-0.3%,9%,21%[46.1 µM],-5%,-17%&4%,-3%,0%
Cc1cc2c(cc1C)C(c1cccc([N+](=O)[O-])c1)CC(=O)N2 (stereo not given),4.5µM*,-9.5%,-19%,?,-6%,-27%,-4%,6%
O=C(O)c1ccc(CNCc2c(Cl)cccc2Cl)cc1,8%,-1.7%,-11%,19%,-1%,5%,2%,13%
COc1ccc(CNC(=O)CCc2c[nH]c3ccccc23)cc1,22%[46.1 µM],/,/,-12%[46.1 µM],-2%,-2%,-3%,-11%
O=C(O)CCCCCNC(=O)c1ccc(Br)cc1,21%,0.3%,4%,-3%,1%,-15%,37%,3%
CC(=O)c1cnc(Nc2nc(C)c3cc(C)c(C)cc3n2)nc1C,4%,-3.7%,-8%,-14%,6%,-13%,18%,-3%
CCN(CC)CC(O)c1cccn1-c1ccc(CNC(=O)NC(C)C)cc1 (stereo not given),-5%,/,/,-7%,-2%,-3%,0%,6%
Cc1ccc2c(c1)-c1onc(C(=O)N(C)c3ccc(F)cc3)c1CO2,/,-1.0%,1%,2%[46.1 µM],/,30%[activator],/,/
Cc1ccccc1OCC(O)CN1CCCCC1 (stereo not given),/,/,/,/,0%,-2%,18%,2%

# An excerpt of these results, with values under each structure:
# Below each compound – MARV entry inh, Cruzain inh Det, Cruzain noTriton, LASV entry inh, SARS PLP yeast, 2A StopGo, RE007 growth inh, NS1 inh
- Cc1ccc2c(c1)-c1onc(C(=O)N(C)c3ccc(F)cc3)c1CO2
 : /, -1.0%, 1%, 2%[46.1 µM], /, 30%[activator], /, /
- COc1ccc(CNC(=O)CCc2c[nH]c3ccccc23)cc1
 : 22%[46.1 µM], /, /, -12%[46.1 µM], -2%, -2%, -3%, -11%
- Cc1nn2c(N3CCN(C(=O)c4ccco4)CC3)cc(C(C)(C)C)nc2c1-c1ccc(Cl)cc1
 : -1%, 3.9%, ?, /, -1%, /, /, 7%
- Cc1cc2c(cc1C)C(c1cccc([N+](=O)[O-])c1)CC(=O)N2 (stereo not given)
 : 4.5µM*, -9.5%, -19%, ?, -6%, -27%, -4%, 6%
- Cc1cccc(C(=O)N2CCCC(N3CCN(c4cccc(Cl)c4)CC3)C2)n1 (stereo not given)
 : 3%, /, /, 1%, -1%, -8%, -25%, -2%

# (next part)
SMILES,MARV entry inh,Cruzain inh Det,Cruzain noTriton,LASV entry inh,SARS PLP yeast,2A StopGo,RE007 growth inh,NS1 inh
COc1ccccc1-c1cc(C(=O)N/N=C/c2ccoc2)c2ccccc2n1,?,/,/,-28%,-3%,-10%,-17%,?
CCn1c(SCC(=O)NNC(=O)c2ccc(C)cc2)nnc1C1CC1,-11%[46.1 µM],/,/,-3%[46.1 µM],-1%,-1%,1%,-6%
CCn1c(CN2CCC(C)CC2)nc2cc(NC(=O)c3cccc([N+](=O)[O-])c3)ccc21,?,-10%,-12%,3%[46.1 µM],/,?,/,/
Cc1ccc(C2NC(=S)NC(c3ccc(C)cc3)C23C(=O)NC(=O)NC3=O)cc1 (stereo not given),1%,3.0%,1%,-4%,3%,-15%,7%,8%
Cc1ccc(C(=O)NCC(=O)N(C)CC(=O)Nc2c(Cl)cccc2Cl)s1,-12%,/,/,-1%,6%,-2%,5%,/
O=C(COc1ccccc1)NCC(=O)Nc1ccncc1,-1%,/,/,-2%,0%,0%,3%,/
O=C(NC1CCCCC1)N1CCN(C(c2ccccc2)c2ccccc2)CC1,?,-3.2%,-3%,13µM*,-4%,/,1%,-6%
COc1cccc(-c2csc(NC(=O)Nc3ccccc3)n2)c1,/,/,/,/,-4%,25µM*,-4%,-1%
O=c1[nH]oc2cc(Cl)ccc12,/,/,/,/,-1%,-27%,13%,-5%
CS(=O)(=O)N1CCN(C(=O)CCC2CCCC2)CC1,13%,4.2%,11%,-2%,0%,14%,-7%,?
CC(=O)Nc1ccc(C(=O)NNC(=O)c2ccc(Cl)cc2)cc1,/,/,/,/,13%,3%,-15%,2%
CC1(C)C(=O)Nc2ccccc2N1C(=O)COc1ccccc1C#N,-4%[46.1 µM],/,/,2%[46.1 µM],-14%,-15%,2%,/
COc1ccc(C)cc1NC(=O)C(=O)NCc1ccncc1,-2%,4.1%,1%,-2%,0%,-18%,-2%,-7%
Cc1cc2oc(C(=O)NCc3ccc4c(c3)OCO4)c(C)c2cc1C,-8%[46.1 µM],-0.4%,0%,?,1%,19%,-1%,-9%
CC(C)CC(=O)C1=C(O)C(=O)N(Cc2ccccc2)C1c1ccccc1 (stereo not given),/,/,/,/,4%,27%,10%,10%
COc1ccc(Nc2nc(Cl)nc(NCc3ccco3)n2)c(OC)c1,-11%,-2.3%,-2%,-17%,4%,-29%,68%,6%
Cc1cc(C)cc(NC(=S)N(Cc2ccc(Br)cc2)Cc2ccc(C(=O)O)cc2)c1,?,/,/,7%[46.1 µM],-8%,-27%,3%,/
CCCN1CCN(CCCNC(=S)Nc2ccc(F)cc2)CC1,/,/,/,/,2%,14%,-7%,1%
CCOC(=O)c1cc(C)n(CCc2ccccc2)c1C,-2%[46.1 µM],-4.1%,1%,-3%,0%,0%,-23%,-41%
O=C(NCc1cc(F)cc(C(F)(F)F)c1)C1CCC(=O)N(C2CCCC2)C1 (stereo not given),/,/,/,/,-4%,18%,6%,14%
COc1ccc(CCNC(=O)C(C)Sc2ccccc2)cc1OC (stereo not given),?,-1.4%,1%,?,2%,0%,21%,-15%
COc1ccc(Br)cc1/C=N/n1c(C)nnc1C,0%,-3.3%,6%,0%,-33%,12%,8%,-5%
O=c1cc(CN2CCN(S(=O)(=O)c3ccc4ccccc4c3)CC2)nc2sccn12,2%[46.1 µM],/,/,-6%[46.1 µM],-6%,5%,-2%,/
CN(C(=O)/C=C/c1ccccc1)C1CCCCC1,2%[46.1 µM],/,/,-8%,/,40%[activator],-3%,/
O=c1c2c3c(sc2ncn1/N=C/c1cccnc1)CCCC3,2%[46.1 µM],/,/,/,0%,59%[activator],-23%,/
COc1cc(NC(=O)NCc2ccco2)ccc1-c1ccc(NC(=O)NCc2ccco2)cc1OC,?,/,/,?,/,-27%,15%,/
CSc1ccc(-c2nc3cccc(C)n3c2Nc2ccc(Cl)cc2)cc1,?,-10%,-8%,-19%[46.1 µM],/,28%,/,/
COc1ccc(OCC(O)CNS(=O)(=O)c2cccc(Cl)c2)cc1 (stereo not given),?,/,/,?,0%,-14%,10%,-1%
COC(=O)[C@@H](NC(=O)Nc1ccc(OC(F)(F)F)cc1)C(C)C,15%,8.1%,-8%,2%,1%,6%,3%,-17%
COc1ccc(C(=O)N=C2SC3CS(=O)(=O)CC3N2c2ccccc2)cc1OC (stereo not given),16%[46.1 µM],/,/,-18%[46.1 µM],3%,5%,0%,?
CC1=NN(C(=O)COc2ccc(C)c(C)c2)C(O)(c2ccc(Cl)cc2)C1 (stereo not given),8%,-9.1%,10%,0%,-28%,-12%,5%,-22%
O=C(CSc1nnc(C2COc3ccccc3O2)o1)N1CCCC1 (stereo not given),1%,/,/,10%,-3%,15%,6%,0%
Cc1[nH]c(=O)c(C#N)c(C)c1CCC(=O)NCc1cccc(C(F)(F)F)c1,-5%[46.1 µM],/,/,11%[46.1 µM],-3%,-3%,-14%,10%
O=C(Nc1cccc(F)c1)c1ccc(S(=O)(=O)NCC2CCCO2)cc1 (stereo not given),-14%,-0.3%,2%,18%,1%,-2%,-20%,-9%
CCOC(=O)c1cc2c(=O)n3ccccc3nc2n(CC2CCCO2)c1=NC(=O)c1cccc(C(F)(F)F)c1 (stereo not given),19%[46.1 µM],-20%,-5%,-8%[46.1 µM],/,9%,/,/
CCOC(=O)c1nnn(-c2nonc2N)c1COc1ccc(F)cc1,3%,-3.1%,-5%,15%,2%,-5%,-1%,-2%
CCc1cc(=O)[nH]c(SCC(=O)Nc2ccc3c(c2)OCCO3)n1,?,/,/,2%,-10%,12%,0%,/
